Assay outcomes (PubChem BioAssay)
Mtb betalactam – beta-lactam sensitization of Mtb H37Rv. M. tuberculosis H37Rv growth with meropenem, percent inhibition; hits of this screen are not shown here. inhibition, % at 25 µM. 330,000 compounds, 0.27% hits. AID 434955;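 active means about 74% or more and at least 40 points above the plate without the antibiotic, then above 30% in a dose series; inconclusive means first-round hits that could not be retested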;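 further: growth measured after seven days incubation then overnight dye step; 0% = bacteria only wells and 100% = bacteria with antibiotic; twin plates without the antibiotic show which effects depend on it; some results filed as inactive read as strong as hits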
RecA intein inh – Mtb RecA intein splicing inhibition. 290,000 compounds, 0.75% hits. AID 2221. P9WHJ3. cell-free RecA intein splicing, fluorescence. inhibition, %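 (about 9 µM by stock and volumes)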; in the data active means inhibition above about 30%; inconclusive means no clear call, values can overlap the other calls;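 further: 0% = vehicle wells and 100% = reference inhibitor control wells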
Target sequence (P9WHJ3 whole entry, looked up): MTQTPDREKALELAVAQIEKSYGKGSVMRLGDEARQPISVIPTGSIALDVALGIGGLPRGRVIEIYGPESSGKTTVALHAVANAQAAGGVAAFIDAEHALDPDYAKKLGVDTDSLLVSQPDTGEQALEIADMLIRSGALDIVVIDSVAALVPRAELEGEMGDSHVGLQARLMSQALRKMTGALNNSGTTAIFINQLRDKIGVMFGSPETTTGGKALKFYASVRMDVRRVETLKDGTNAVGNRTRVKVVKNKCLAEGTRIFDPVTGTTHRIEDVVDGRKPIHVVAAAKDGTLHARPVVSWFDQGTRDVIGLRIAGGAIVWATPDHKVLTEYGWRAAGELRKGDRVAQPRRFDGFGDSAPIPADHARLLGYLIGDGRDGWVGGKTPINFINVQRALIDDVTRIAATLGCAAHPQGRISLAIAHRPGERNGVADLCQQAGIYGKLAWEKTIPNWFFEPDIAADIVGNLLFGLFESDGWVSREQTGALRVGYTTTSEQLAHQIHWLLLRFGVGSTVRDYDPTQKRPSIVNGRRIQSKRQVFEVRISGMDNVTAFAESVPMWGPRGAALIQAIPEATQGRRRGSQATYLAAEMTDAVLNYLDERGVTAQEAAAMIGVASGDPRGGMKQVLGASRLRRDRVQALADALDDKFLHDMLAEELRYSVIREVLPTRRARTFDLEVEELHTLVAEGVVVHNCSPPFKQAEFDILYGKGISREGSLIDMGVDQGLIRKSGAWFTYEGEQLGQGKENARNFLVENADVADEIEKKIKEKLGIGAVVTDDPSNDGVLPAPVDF
Mtb H37Rv – M. tuberculosis H37Rv growth inhibitors, H37Rv strain (AID 1626) | M. tuberculosis H37Rv growth inhibition; higher % means a stronger effect | inhibition, % at 10 µM, or IC50 in µM where a hit was titrated | 220,000 compounds, 0.95% hits;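 active means confirmed in a dose series; inconclusive means inhibition above 80% but not taken into the dose series; inactive means below 80% or under 30% at every dose of the series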;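 further: bacteria incubated seven days before Alamar blue readout; 0% = bacteria only wells and 100% = bacteria with antibiotic wells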
Arbovirus anti – arbovirus infection inhibition | arbovirus infection cell-based antiviral screen | 200,000 compounds, 0.37% hits | inhibition, % at 10 µM | AID 1251;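 active means inhibition from about 30%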;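 further: bluetongue infection of BSR cells; cell survival read as ATP light after 72 h; 0% = infected wells without compound and 100% = uninfected wells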
YopH inh – inhibitors of Yersinia enterocolitica YopH tyrosine phosphatase | fluorescence Ex485/Em525 | inhibition, %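 (about 10 µM by stock and volumes)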 | 140,000 compounds, 0.16% hits;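 active means inhibition of 50% or more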;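 further: controls were vehicle for no effect and minimum signal wells for full effect; inactives centre near -20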
Arbovirus anti repeat – second read-out of Arbovirus anti, no call of its own (marks repeat the call); inhibition, %; measured here: 10K subset replicate screen; many hits read low in the repeat;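 first of two repeat runs on a subset; 0% = infected and 100% = uninfected wells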
* hit, by the source's call; ? = inconclusive; · = not tested or not shown. Only part of the results is shown, so the mix of outcomes need not match the whole.

SMILES	Mtb betalactam	RecA intein inh	Mtb H37Rv	Arbovirus anti	YopH inh	others
CC1(C)Cc2c(C#N)c(N)n(-c3ccccc3)c(=O)c2CO1	-1	-0.6	1%	-4	-17
COc1ccc(-c2csc(N3CCC(c4ccccc4)CC3)n2)cc1	-4	-0.1	1%	-5	·
CCn1cc(S(=O)(=O)Nc2cc(C)ccc2F)cn1	3	0.5	·	·	·
FC(F)(F)c1cccc(CNC(=S)Nc2ccccc2)c1	4	2.0	5%	16	·
CC(=O)c1ccc(NC(=O)CCCC(=O)c2ccccc2)cc1	8	-0.8	·	·	·
CCCN(CCC)C(=O)CC(c1ccccc1)c1cc(Br)ccc1O (centres undefined)	-11	1.6	9%	-47	-2
O=C(CSc1nnc(NC(=O)c2ccccc2[N+](=O)[O-])s1)NCc1ccco1	-16	0.0	·	·	·
OC(COc1ccccc1F)CN1CCC(Cc2ccccc2)CC1 (centres undefined)	5	-4.6	·	·	·
COCCCNC(=O)C1CCC(=O)N1Cc1ccccc1Cl (centres undefined)	-4	0.6	-10%	6	-34
COc1ccc(OC)c(NC(=S)NCCC(c2ccccc2)c2ccccc2)c1	-9	-0.7	6%	·	6
NC(=O)C1CCN(C(=S)NCCc2ccccc2)CC1	14	0.1	-3%	3	·
COC(=O)Cc1c(C)c2ccc(OCC(=O)N3CCCC3)c(C)c2oc1=O	-11	1.2	·	·	·
CN(C(=O)c1ccc(Cl)cc1)C1=CCCCC1CCC#N (centres undefined)	-7	-0.6	-12%	-3	-40
O=C(c1cc(COc2c(F)cccc2F)on1)N(Cc1ccccc1)CC1CC1	8	7.2	·	·	·
Cc1cc(NC(=O)Cn2cc([N+](=O)[O-])cn2)n(Cc2ccc(F)cc2)n1	4	-0.5	9%	8	·
O=C(CCNS(=O)(=O)c1cccc2nonc12)NCCc1ccc(Cl)cc1	-1	2.2	-4%	-4	-13	Arbovirus anti repeat=-3
Cc1nn(C(C)c2nc(-c3ccccc3)no2)c(C)c1[N+](=O)[O-] (centres undefined)	-10	1.0	-11%	0	-33
O=C(CSc1ncccc1C(=O)O)NC1CCCCC1	2	-0.7	·	·	·
CN(C)S(=O)(=O)c1ccc(C(=O)Nc2ccccc2C(=O)O)cc1	-4	0.4	-5%	4	-10
O=C(CCN1CCN(Cc2ccccc2)CC1)NNC(=O)Nc1cccc(C(F)(F)F)c1	4	1.7	·	·	·
Cc1nc(Nc2ccc(S(N)(=O)=O)cc2)oc1C	13	8.0	-4%	4	-33
O=C(OCc1ccc(F)cc1)c1cc(=O)c2ccccc2o1	-3	-0.3	·	·	·
N#CC1=C(N)Oc2cc(O)c(C=Nc3ccccc3)cc2C1c1ccccc1 (centres undefined)	5	-3.0	-5%	-5	-21
CCCCNC(=O)c1onc(CSc2ccccc2CC)c1C(=O)O	·	-0.6	0%	22	11
O=C(Nc1cc(Sc2ccccn2)cc([N+](=O)[O-])c1)c1cccc(Cl)c1	9	9.9	11%	-15	-20

4 compounds already listed, sorted by molar mass, low to high.
SMILES	Mtb betalactam	RecA intein inh	Mtb H37Rv	Arbovirus anti	YopH inh	others
Cc1nn(C(C)c2nc(-c3ccccc3)no2)c(C)c1[N+](=O)[O-] (centres undefined)	-10	1.0	-11%	0	-33
Cc1cc(NC(=O)Cn2cc([N+](=O)[O-])cn2)n(Cc2ccc(F)cc2)n1	4	-0.5	9%	8	·
CCCCNC(=O)c1onc(CSc2ccccc2CC)c1C(=O)O	·	-0.6	0%	22	11
O=C(CSc1nnc(NC(=O)c2ccccc2[N+](=O)[O-])s1)NCc1ccco1	-16	0.0	·	·	·

More records:
SMILES	Mtb betalactam	RecA intein inh	Mtb H37Rv	Arbovirus anti	YopH inh	others
c1ccc(-c2nnc(N3CCN(c4ccccn4)CC3)c3ccccc23)cc1	99	1.6	49%	8	-5
COC(=O)c1ccccc1NC(=O)c1noc2c1CCC2	-4	6.4	14%	8	·
O=C(Nc1ccc(F)cc1)c1ccc2c(=O)n3c(nc2c1)CCCCC3	?	1.5	·	·	·
Cc1ccc(-c2c(C(=O)N/N=C/C3CC=CCC3)nnn2-c2nonc2N)cc1 (centres undefined)	7	0.4	·	·	·
O=C(Cc1ccc(Cl)cc1)NCCCn1ccnc1	-3	3.9	4%	7	-33
COCc1nc2sc(C)c(C)c2c(=O)[nH]1	-13	-1.1	-5%	0	6
O=C(NCc1ccccc1)C(=O)NCC1OCCN1S(=O)(=O)c1cccs1 (centres undefined)	-2	0.3	-3%	-1	-29
CCN(CC)c1ccc(NC(=O)CCCOc2cccc(C)c2)cc1	·	-3.9	-1%	-2	·
O=C1c2ccccc2-c2c1cccc2C(=O)N1CCOCC1	5	-1.1	5%	8	-16
Cc1ccc(-n2cc(C(=O)c3ccc4ccccc4c3O)cn2)cc1	2	0.3	-2%	0	-31
NC(=O)Nc1ccc2c(c1)OCCO2	-2	·	6%	-2	-13
Cc1cccc(NC(=O)c2cccc(NS(=O)(=O)c3ccc(Cl)cc3)c2)c1	-1	3.1	1%	-23	-14
FC(F)(F)c1cc(Cl)c2nnc(-c3cccnc3)n2c1	-4	·	21%	0	·
COC(=O)c1ccccc1NC(=O)CN(CCc1ccccc1)S(C)(=O)=O	-3	-1.8	-3%	13	-7
O=C(NNC(=S)NC1CC2C=CC1C2)c1cccnc1 (centres undefined)	-3	4.7	-4%	·	·
CCCS(=O)(=O)N1CCCC(C(=O)Nc2ccc3c(c2)CCC3)C1 (centres undefined)	0	1.4	·	·	·
CCc1ccc(/C=C2/SC(N3CCOCC3)=NC2=O)cc1	-3	-1.0	1%	·	·
CCn1c(CSc2nnc(-c3ccc4c(c3)OCO4)o2)nc2cc(S(=O)(=O)N(C)C)ccc21	-6	·	-11%	-4	-30
CCCNc1nc2c(c(=O)[nH]c(=O)n2C)n1Cc1cccc(Br)c1	-1	-1.9	1%	-9	-26	Arbovirus anti repeat=-9
COc1ccccc1N1CCN(C(=O)Nc2cccc(Cl)c2)CC1	-11	0.8	-1%	-5	-1
CCOC(=O)c1c(NC(=O)c2cccs2)sc2c1CCC2	9	-10	2%	1	·	Arbovirus anti repeat=-1
CCOC(=O)N1CCN(c2cc(NCCC(=O)O)c3c4c(onc24)-c2ccccc2C3=O)CC1	13	·	·	6	87*
Cc1ccccc1OCCCN1C(=O)C(=O)c2cccc(C)c21	-1	-0.4	·	-32	-27
CCOC(=O)C1CCN(C(=O)Nc2ccc3snnc3c2)CC1	-18	3.2	-3%	2	34
COc1ccc(OC)c(/C=C2\SC(=S)N(Cc3cccnc3)C2=O)c1	22	2.0	5%	4	-13

(more compounds)
SMILES	Mtb betalactam	RecA intein inh	Mtb H37Rv	Arbovirus anti	YopH inh	others
Cc1nc2sccn2c(=O)c1S(=O)(=O)N1CCN(c2ccc(F)cc2)CC1	1	-2.7	·	·	·
COc1ccc(C(=O)NC(=S)Nc2ccc3oc(=O)ccc3c2)cc1[N+](=O)[O-]	11	0.5	·	·	·
COc1ccc(C)cc1NC(=O)CCCNC(=O)Cn1cnc2sc(C)c(C)c2c1=O	4	0.1	·	·	·
O=C(CCc1nnc2ccc(NCc3ccco3)nn12)N1CCN(c2ccccc2F)CC1	-7	2.8	·	·	·
Cc1ccccc1C(=O)NC(=S)Nc1ccccc1C(F)(F)F	-2	2.9	-2%	2	-26
CCN(CCCNC(=O)Cn1ncc2c([nH]c3ccc(C)cc32)c1=O)c1ccccc1	5	-3.2	·	·	·
Fc1cccc(CO/N=C/c2c(-c3ccccc3)nc3ccc(Cl)cn23)c1	13	6.6	13%	2	-38
O=C(c1ccc2c(c1)N(Cc1ccccc1F)C(=O)c1ccccc1S2(=O)=O)N1CCCC1	-4	-3.8	·	·	·
COc1ccc(C(=O)NC(=S)Nc2ccc3c(c2)Cc2ccccc2-3)cc1	-7	0.0	6%	1	-12
COc1cccc(Nc2nc(-c3sc(NC(=O)c4ccccc4)nc3C)cs2)c1	9	5.5	-2%	-30	-16
COc1cc(=O)[nH]c(SCc2c(F)c(F)c(F)c(F)c2F)n1	-6	0.4	-3%	0	14
Cc1cccc(NC(=O)CCCCC(=O)Nc2cccc(C)c2)c1	3	2.9	·	·	·
COc1ccccc1CNC(=O)c1ccccc1NS(C)(=O)=O	11	-0.8	2%	-2	-6
COc1ccc(NC(=S)N(CCCN2CCOCC2)Cc2cn(C)c3ccccc23)cc1OC	-4	1.2	0%	3	-17
O=C(NCc1ccc(F)cc1)C1CCCN1C(=O)NCc1ccccc1 (centres undefined)	-4	-1.0	-2%	1	-23
Cc1nc2cc(NCc3nc4ccccc4n3Cc3ccccc3)ccc2n1C	-8	-0.1	·	2	7
O=C(Nc1ccc(Cl)c(Cl)c1)N1CCSC1c1ccco1 (centres undefined)	7	6.0	7%	-1	-40
CC1CCCC(C)N1C(=O)COC(=O)CNC(=O)c1ccc(Cl)cc1Cl (centres undefined)	-2	-1.2	·	·	·
CC(C(=O)Nc1ccc(S(=O)(=O)N2CCCC2)cc1)N1CCN(C(=O)c2ccco2)CC1 (centres undefined)	-6	1.2	-5%	2	0
CCOc1ccccc1C1N(c2ccc(OC)cc2)C(=O)C2CCCN21 (centres undefined)	-2	2.0	-7%	12	-45	Arbovirus anti repeat=9
O=[N+]([O-])c1cccc(-c2nnc3ccccn23)c1	-5	-0.7	-3%	·	·
O=C(CC(=O)Nc1nc(C23CC4CC(CC(C4)C2)C3)cs1)NCCO	-5	0.8	-15%	·	·
CCC(C(=O)NC1CCCC1)N(C(=O)Cn1nnc(-c2ccc(C)o2)n1)c1ccccc1OC (centres undefined)	-5	-1.5	·	·	·
Cc1ccc(-c2nc(N3CCOCC3)sc2C(=O)N2CCOCC2)cc1	-5	2.0	3%	2	-17
CC(C)CN(C(=O)COC(=O)c1ccccc1NCc1ccco1)c1c(N)n(Cc2ccccc2)c(=O)[nH]c1=O	1	1.1	·	·	·

Structures listed so far that have a CF3 group (4):
SMILES	Mtb betalactam	RecA intein inh	Mtb H37Rv	Arbovirus anti	YopH inh	others
FC(F)(F)c1cccc(CNC(=S)Nc2ccccc2)c1	4	2.0	5%	16	·
O=C(CCN1CCN(Cc2ccccc2)CC1)NNC(=O)Nc1cccc(C(F)(F)F)c1	4	1.7	·	·	·
FC(F)(F)c1cc(Cl)c2nnc(-c3cccnc3)n2c1	-4	·	21%	0	·
Cc1ccccc1C(=O)NC(=S)Nc1ccccc1C(F)(F)F	-2	2.9	-2%	2	-26

(listing goes on)
SMILES	Mtb betalactam	RecA intein inh	Mtb H37Rv	Arbovirus anti	YopH inh	others
O=C(NN=C1CCCC1)c1cccc(O)c1	32	0.4	·	·	·
Brc1ccc2[nH]cc(/C=N/N3CCCCC3)c2c1	23	-1.7	28%	-10	-24
O=C(CNCCc1ccc(Cl)cc1)Nc1ccc(C(=O)N2CCCCC2)cc1	89	-2.6	·	·	·
Cc1nc(-c2cc(C#N)c(Sc3cccc(C(F)(F)F)c3)nc2C)cs1	6	5.3	4%	·	·
CC(C)OP(=O)(c1ccc(N(C)C)cc1)C(Nc1ccccc1)c1cccnc1 (centres undefined)	0	0.5	-20%	-7	-31
CCCC(Oc1ccc(Br)cc1)c1nc2c3cc(OC)c(OC)cc3nc(=S)n2[nH]1 (centres undefined)	-10	-0.1	-1%	-24	·
Cn1c(SCc2nnc(-c3ccc(F)cc3)o2)nnc1C1COc2ccccc2O1 (centres undefined)	0	-0.6	-5%	8	-41
CN1C2=NCCN2C(=O)c2ccccc21	-4	0.6	-1%	0	-13
CCOc1ncccc1C(=O)Nc1ccc(F)c(F)c1	0	·	7%	25	·
COc1cc(-c2nnc(SCc3cc(=O)oc4cc(C)ccc34)o2)cc(OC)c1OC	?	0.3	-10%	-4	-40
COc1ccc(-c2nc(N3CCOCC3)nc3n[nH]c(N)c23)cc1	-7	0.9	-9%	3	-32	Arbovirus anti repeat=-9
O=S(=O)(NCC(c1ccc2c(c1)OCO2)N1CCN(c2ccccc2)CC1)c1ccccc1 (centres undefined)	-10	5.5	·	·	·
Cc1ccc2cc3cc(C(=O)NCCC(C)C)oc3nc2c1	12	-2.2	·	-30	1
NC(=O)c1c(NC(=O)C2CCCO2)sc2c1CCCCC2 (centres undefined)	4	-5.8	-7%	0	-19
CC(=O)NC(CC(=O)O)c1ccccc1 (centres undefined)	-5	-0.6	0%	·	·
COc1ccc(-n2nc(C(=O)Nc3ccc(OC)c(OC)c3)c3c4ccccc4n(C)c3c2=O)cc1	8	-0.2	-1%	-28	-12
CCCCc1c(O)nc(SCC(=O)NCCc2ccc(OC)c(OC)c2)[nH]c1=O	0	-1.3	-2%	2	-25
Cc1c(OCC(=O)NC2CC(C)(C)NC(C)(C)C2)ccc2c1oc(=O)c1ccccc12	8	-0.6	·	·	·
CCCn1c(SCC(=O)Nc2ccccc2Cl)n[nH]c1=O	-8	-0.1	2%	·	·
CCOC(=O)c1sc(NC(=O)COC(=O)C(CCSC)NC(C)=O)nc1C (centres undefined)	8	-1.1	0%	-2	-16
